ID4 SMM: binds human ID4 protein on microarray. P47928. small molecule microarray, Flag-ID4 binding, fluorescence F/B. calls only. 31,000 compounds, 1.2% hits;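 active = spot signal over background at p below 0.07 in all four prints; compounds were printed on slides so no solution concentration is given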;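 note: a binder raises fluorescence above local background on the spot; about 2 pmol printed per array spot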
Target sequence (P47928 whole entry, looked up): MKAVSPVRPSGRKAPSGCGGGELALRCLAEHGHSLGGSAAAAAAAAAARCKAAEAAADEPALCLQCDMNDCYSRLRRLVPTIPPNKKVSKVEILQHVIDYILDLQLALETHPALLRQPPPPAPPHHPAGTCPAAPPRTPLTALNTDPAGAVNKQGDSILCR
Calls only; i = inactive. This is a subset (hit frequency here may not be typical).

SMILES | ID4 SMM
CC(C)CC#Cc1cnc2c(c1)C(=O)N([C@@H](C)CO)C[C@H](C)[C@@H](CN(C)C(=O)C1CCCCC1)O2 | i
C[C@H](NC(=O)C[C@H]1C=C[C@H](NC(=O)C2CCC2)[C@H](CO)O1)c1ccccc1 | i
CC(C)CC#Cc1cnc2c(c1)C(=O)N([C@@H](C)CO)C[C@H](C)[C@@H](CN(C)C(=O)c1ccccc1)O2 | i
C[C@H](CO)N1C[C@H](C)[C@H](CN(C)C)Oc2cc(C#CC3CCCC3)ccc2S1(=O)=O | i
Cc1cc(C)c(NC(=O)CN(c2cccc(Cl)c2C)S(C)(=O)=O)c(C)c1 | i
O=C(Cc1ccccc1)N[C@@H]1CC[C@H](CC(=O)N2CCCCC2)O[C@@H]1CO | i
CC(Sc1nc(-c2ccccc2)c(C#N)c(=O)[nH]1)C(=O)Nc1cccc(Cl)c1 (centres undefined) | i
O=C(CCc1nc(-c2ccc(Cl)cc2)no1)NC1CCCCC1 | i
COC(=O)C(C)Sc1nc2c([nH]c3ccccc32)c(=O)n1C (centres undefined) | i
Cn1c(CSc2cc(C(F)(F)F)nc3ccccc23)n[nH]c1=S | i
O=C(Nc1ccccc1C(=O)Nc1ccccc1C(=O)NCc1ccco1)c1ccco1 | i
COc1ccc(C)cc1NC(=O)CN(c1cc(Cl)ccc1OC)S(C)(=O)=O | i
O=C(C[C@H]1CC[C@H](NC(=O)Nc2ccc(C(F)(F)F)cc2)[C@@H](CO)O1)NCCN1CCCC1 | i
CCN(CC(=O)O)S(=O)(=O)c1ccc(Br)cc1 | i
Cc1ccc(-n2c(SCC(=O)Nc3ccc(F)c(F)c3)nnc2-c2cnccn2)cc1 | i
CCCC#Cc1cnc2c(c1)C(=O)N([C@@H](C)CO)C[C@H](C)[C@H](CN(C)C(=O)c1ccc(F)cc1)O2 | i
CC(=O)N(C)C[C@@H]1Oc2ncc(C#Cc3cccc(F)c3)cc2C(=O)N([C@H](C)CO)C[C@H]1C | i
CO[C@@H]1CN(C)C(=O)c2ccc(NC(=O)C3CC3)cc2OC[C@@H](C)N(C)C[C@H]1C | i
C[C@@H]1CN([C@H](C)CO)C(=O)c2cc(-c3cccc(F)c3)cnc2O[C@H]1CN(C)C(=O)C1CCC1 | i
C[C@H](CO)N1C[C@H](C)[C@@H](CN(C)Cc2ccccc2C(F)(F)F)OCc2cn(nn2)CCCC1=O | i
C/C=C/c1cnc2c(c1)C(=O)N([C@@H](C)CO)C[C@H](C)[C@H](CN(C)C(=O)Cc1ccccn1)O2 | i
CC(C)C#Cc1ccc2c(c1)O[C@H](CN(C)Cc1ccccc1)[C@@H](C)CN([C@H](C)CO)S2(=O)=O | i
COc1cccc(-c2ccc3c(c2)O[C@@H](CN(C)CC2CC2)[C@@H](C)CN([C@@H](C)CO)S3(=O)=O)c1 | i
C[C@@H]1CN([C@@H](C)CO)C(=O)c2cc(-c3ccc(C#N)cc3)cnc2O[C@@H]1CN(C)C(=O)Nc1ccc(C(F)(F)F)cc1 | i
O=C(CSc1nc(O)c(-c2ccccc2)c(=O)[nH]1)N(c1ccccc1)c1ccccc1 | i
Carrying on:
SMILES | ID4 SMM
CCCCc1ccc(-n2c(-c3ccc(F)cc3)coc2=O)cc1 | i
COc1ccc(CNC(=O)C[C@@H]2C=C[C@@H](NC(=O)c3ccc4c(c3)OCO4)[C@H](CO)O2)cc1 | i
C[C@H](NC(=O)C[C@H]1C=C[C@H](NC(=O)C2CCC2)[C@@H](CO)O1)c1ccccc1 | i
CO[C@@H](CN(C)S(=O)(=O)c1ccc(F)cc1)[C@H](C)CN(C(=O)Nc1ccccc1F)[C@@H](C)CO | i
COCCOC(=O)N1C(=O)[C@@]2(c3cc(C#CCC(C(=O)OC)C(=O)OC)ccc31)[C@H](C(=O)Nc1nc3ccccc3s1)[C@H]1C(=O)O[C@H](c3ccccc3)[C@H](c3ccccc3)N1[C@@H]2c1ccccc1OCCO | i
COc1ccccc1-c1ccc2c(c1)O[C@@H](CN(C)C)[C@@H](C)CN([C@H](C)CO)S2(=O)=O | i
O=C(C1c2ccccc2C(=O)N2CCc3ccccc3C12)N1CCCC1 (centres undefined) | i
CC(=O)N[C@H]1CC[C@@H](CCNC(=O)C2CCC2)O[C@H]1CO | i
C/C=C/c1cnc2c(c1)C(=O)N([C@H](C)CO)C[C@H](C)[C@@H](CN(C)C(=O)C1CCC1)O2 | i
O=C(CSCCO)Nc1ccc(F)cc1 | i
C[C@H](CO)N1C[C@H](C)[C@H](CN(C)S(=O)(=O)CC(F)(F)F)OCc2ccccc2-c2c(n(C)c3ccccc23)C1=O | i
COc1ccc(NC(=O)CSc2nc3ccc([N+](=O)[O-])cc3s2)cc1Cl | i
O=C(C[C@H]1C=C[C@@H](NC(=O)Nc2cc(F)ccc2F)[C@H](CO)O1)NCCCN1CCOCC1 | i
CC(=O)Nc1ccc(C(=O)CSc2nnc(-c3ccccc3Cl)o2)cc1 | i
O=C(CNC(=O)c1ccccc1)Nc1cccc(-c2cnc3ccccc3n2)c1 | i
COc1ccc(CN(C)C[C@@H]2Oc3ccc(N(C)C)cc3CC(=O)N([C@@H](C)CO)C[C@H]2C)cc1 | i
COc1ccccc1-c1cc(-c2ccccc2)nc(SCC(=O)c2cc3ccccc3oc2=O)c1C#N | i
CN1CCN(C(=O)C[C@@H]2C[C@H]3c4cc(NC(=O)Nc5ccc(C(F)(F)F)cc5)ccc4O[C@H]3[C@H](CO)O2)CC1 | i
COc1ccc(OC)c(NC(=O)Cn2cc(C(C)=O)c3ccccc32)c1 | i
O=C(C[C@H]1CC[C@@H](NC(=O)C2CC2)[C@H](CO)O1)NCc1ccccc1Cl | i
O=C(C[C@@H]1C=C[C@H](NC(=O)Nc2ccccc2F)[C@H](CO)O1)NCc1ccc(F)cc1 | i
C[C@H]1CN([C@@H](C)CO)C(=O)c2cc(C#CC3(O)CCCC3)cnc2O[C@@H]1CN(C)C(=O)CC1CC1 | i
COc1ccc(NC(=O)CN2CCN(C(=O)c3ccco3)CC2)cc1 | i
C[C@H](NC(=O)C[C@@H]1CC[C@@H](NC(=O)CN2CCOCC2)[C@H](CO)O1)c1ccccc1 | i
COc1ccc(OC)c(N(CC(=O)Nc2ccc(F)c(F)c2)S(C)(=O)=O)c1 | i

Continued (3 carried over from the part before).
SMILES | ID4 SMM
COc1ccc(NC(=O)CN2CCN(C(=O)c3ccco3)CC2)cc1 | i
C[C@H](NC(=O)C[C@@H]1CC[C@@H](NC(=O)CN2CCOCC2)[C@H](CO)O1)c1ccccc1 | i
COc1ccc(OC)c(N(CC(=O)Nc2ccc(F)c(F)c2)S(C)(=O)=O)c1 | i
CCN(CC(=O)Nc1ccc(I)cc1)S(=O)(=O)c1ccc(Cl)cc1 | i
COc1ccc(C(=O)N(Cc2nc(-c3ccc(Cl)cc3)no2)C(C)C)cc1[N+](=O)[O-] | i
CCCC#Cc1cnc2c(c1)C(=O)N([C@@H](C)CO)C[C@@H](C)[C@H](CN(C)C(=O)Nc1cc(F)ccc1F)O2 | i
COc1ccc(OC)c(NC(=O)CN(c2cccc(Br)c2)S(C)(=O)=O)c1 | i
Cc1cc(NS(=O)(=O)c2ccc(NC(=O)NC3CCCCC3)cc2)no1 | i
C[C@H](CO)N1C[C@H](C)[C@H](CN(C)CC2CC2)Oc2ncc(-c3ccc(F)cc3)cc2C1=O | i
COc1ccc(NC(=O)N[C@@H]2C=C[C@H](CC(=O)NC3CCC3)O[C@@H]2CO)cc1 | i
COc1cc2c(cc1NC(=O)CCOc1ccccc1C)oc1ccccc12 | i
COc1ccc(C(=O)CSc2nnc(-c3cc4ccccc4o3)n2C)cc1 | i
COc1cc([N+](=O)[O-])ccc1NC(=O)NCc1ccco1 | i
C[C@H]1CN([C@@H](C)CO)C(=O)CCCn2nncc2CO[C@H]1CN(C)Cc1ccccc1C(F)(F)F | i
Cc1ccc(F)c(NC(=O)CSc2nnc(C)s2)c1 | i
O=C(CSc1nc2ccccc2[nH]1)Nc1cccc(C(F)(F)F)c1 | i
C[C@H]1CN([C@@H](C)CO)C(=O)c2ccccc2-c2ccccc2CO[C@@H]1CN(C)C(=O)[C@H]1CCCN1C | i
O=c1[nH]cnc2ccc(NC(=S)NC3CC3)cc12 | i
CC(C)c1cn(CC[C@@H]2CC[C@H](NC(=O)c3cccc(F)c3)[C@H](CO)O2)nn1 | i
O=C(C[C@H]1C=C[C@@H](NC(=O)Nc2cc(F)ccc2F)[C@H](CO)O1)Nc1ccc(-c2ccccc2)cc1 | i
COc1ccc(-c2nn(C)c(=O)c3ccccc23)cc1CNC(=O)c1ccc([N+](=O)[O-])cc1 | i
COc1ccc(-c2nnc(SCC(=O)Nc3ccc(Br)c(C)c3C)n2C)cc1 | i
CS(=O)(=O)N1[C@H](CO)[C@H](c2ccc(-c3ccccc3F)cc2)[C@@H]1C#N | i
CCCN(C)C[C@@H]1Oc2ncc(Br)cc2C(=O)N([C@@H](C)CO)C[C@@H]1C | i
CC1=CC(C)(C)N2C(=O)C(=O)c3cc(OC(=O)CN4C(=O)c5ccccc5C4=O)cc1c32 | i
CC(C)CC#Cc1ccc2c(c1)O[C@H](CN(C)C(=O)NC1CCCC1)[C@@H](C)CN([C@H](C)CO)S2(=O)=O | i
O=C(C[C@H]1C=C[C@H](NC(=O)Nc2cccc(F)c2)[C@H](CO)O1)NCC1CCCCC1 | i
CCCN(C)C[C@@H]1Oc2cc(/C=C/c3ccccc3)ccc2S(=O)(=O)N([C@H](C)CO)C[C@@H]1C | i

Brought forward from above: 6 entries, then new ones.
SMILES | ID4 SMM
CS(=O)(=O)N1[C@H](CO)[C@H](c2ccc(-c3ccccc3F)cc2)[C@@H]1C#N | i
CCCN(C)C[C@@H]1Oc2ncc(Br)cc2C(=O)N([C@@H](C)CO)C[C@@H]1C | i
CC1=CC(C)(C)N2C(=O)C(=O)c3cc(OC(=O)CN4C(=O)c5ccccc5C4=O)cc1c32 | i
CC(C)CC#Cc1ccc2c(c1)O[C@H](CN(C)C(=O)NC1CCCC1)[C@@H](C)CN([C@H](C)CO)S2(=O)=O | i
O=C(C[C@H]1C=C[C@H](NC(=O)Nc2cccc(F)c2)[C@H](CO)O1)NCC1CCCCC1 | i
CCCN(C)C[C@@H]1Oc2cc(/C=C/c3ccccc3)ccc2S(=O)(=O)N([C@H](C)CO)C[C@@H]1C | i
Cc1cc(C)nc(SCC(=O)c2c(C)[nH]c3ccccc23)n1 | i
Clc1ccc(OCCSCc2nc3ccccc3[nH]2)cc1 | i
Cc1[nH]c2ccccc2c1C(=O)CSc1nnc2ccccn12 | i
COc1ccccc1NC(=O)N[C@H]1C=C[C@@H](CC(=O)N[C@H](C)c2ccccc2)O[C@H]1CO | i
Cc1cc(Oc2ccccc2)nc(SCC(N)=O)n1 | i
O=C(/C=C/c1ccco1)C1(O)CCCCC1 | i
COCC#Cc1ccc2c(c1)O[C@@H](CN(C)C(=O)c1ccccc1)[C@H](C)CN([C@@H](C)CO)S2(=O)=O | i
Cc1nnc(SCC(=O)Nc2cc(C(F)(F)F)ccc2Cl)s1 | i
C[C@H](CO)N1C[C@H](C)[C@@H](CN(C)C(=O)CN(C)C)Oc2cc(C#C[C@@H](C)O)ccc2S1(=O)=O | i
C[C@H](CO)N1C[C@H](C)[C@H](CN(C)CC2CCCCC2)Oc2ncc(-c3ccc(F)cc3)cc2C1=O | i
N#CCCCN1C(=O)C(O)(CC(=O)c2ccc3c(c2)OCCO3)c2ccccc21 (centres undefined) | i
C[C@H]1CN([C@@H](C)CO)C(=O)c2cc(Br)cnc2O[C@@H]1CN(C)Cc1ccccc1 | i
CCOC(=O)c1c(NC(=S)NC(=O)c2ccc3c(c2)OCCO3)sc(C(=O)OC)c1C | i
CS(=O)(=O)N(CC(=O)NC1CC1)c1ccccc1 | i
Cc1ccc(-c2cnc3c(c2)C(=O)N([C@H](C)CO)C[C@@H](C)[C@H](CN(C)CC2CCCC2)O3)cc1 | i
COc1cc2nc(N(C)CCCNC(=O)C3CCCO3)nc(N)c2cc1OC (centres undefined) | i
CC(C)(C)c1ccc(OCC(O)Cn2cnc3ccccc32)cc1 (centres undefined) | i
CCN(CC(=O)Nc1cc([N+](=O)[O-])ccc1C)S(=O)(=O)c1ccc(C)cc1 | i
C[C@H]1CN([C@@H](C)CO)C(=O)c2cc(-c3cccc(F)c3)cnc2O[C@@H]1CN(C)C(=O)C1CCC1 | i
O=C(C[C@H]1CC[C@@H](NC(=O)c2cnccn2)[C@H](CO)O1)NCc1ccccc1F | i
COc1ccc(-c2cnc3c(c2)C(=O)N([C@@H](C)CO)C[C@@H](C)[C@@H](CN(C)C)O3)cc1 | i
CCC1C/C(=C\c2sccc2C)C(=O)/C(=C/c2sccc2C)C1 (centres undefined) | i
Cc1ccc(S(=O)(=O)N[C@@H]2CC[C@H](CC(=O)NCCc3ccncc3)O[C@H]2CO)cc1 | i
Nc1nnc(SCC(=O)Nc2ccc(F)c(Cl)c2)n1-c1ccccc1 | i
O=C(N[C@H]1C=C[C@@H](CC(=O)N2CCc3ccccc3C2)O[C@@H]1CO)C1CC1 | i
(list continues)
SMILES | ID4 SMM
C[C@@H]1CN([C@H](C)CO)C(=O)c2cc(C#CCN(C)C)cnc2O[C@H]1CN(C)C(=O)Cc1ccccc1 | i
C[C@H]1CN([C@@H](C)CO)C(=O)c2cc(/C=C/c3ccccc3)cnc2O[C@@H]1CN(C)C(=O)C1CC1 | i
CC(=O)N(C)C[C@@H]1Oc2ncc(/C=C/c3ccccc3)cc2C(=O)N([C@@H](C)CO)C[C@H]1C | i
CC1O[C@@H](Oc2c(-c3ccc(O)c(O)c3)oc3cc(O)cc(O)c3c2=O)[C@H](O)[C@H](O)[C@H]1O (some centres undefined) | i
COc1c(OC)c(O)c2c(=O)c(O)c(-c3ccccc3)oc2c1OC | i
O=C(CSc1nnc(-c2ccncc2)o1)Nc1cccc(C(F)(F)F)c1 | i
C[C@H](NC(=O)C[C@@H]1CC[C@H](NC(=O)CN2CCOCC2)[C@@H](CO)O1)c1ccccc1 | i
CC(C)NC(=O)N(C)C[C@H]1Oc2ccc(N(C)C)cc2C(=O)N([C@@H](C)CO)C[C@@H]1C | i

Screening data (PubChem BioAssay)
